Assay outcomes as filed in PubChem.
ugtP null kill: kills S. aureus RN4220 lacking UgtP. S. aureus RN4220 ugtP deletion, OD600 growth, 16 h; some inactives read as strong as hits. growth inhibition, % (test concentration not listed). 330,000 compounds, 0.54% hits;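 active = z-score under -3 and OD600 up to 0.15 on both plates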;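 also: plate controls were untreated wells for no effect and antibiotic for full effect; wells of about 80 µL received 100 nL stock; the first replicate is given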
BJeLR viability: BJeLR cell viability loss. inhibition, % (test concentration not listed). 300,000 compounds, 0.17% hits. BJeLR (HRASV12) viability, CellTiter-Glo ATP luminescence, 48 h; reference of the scale not given here;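 active = replicate mean above 50%; inconclusive = above 50% but judged a plate artefact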;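 also: 50 nL library stock added to about 25 µL; numbers are from one replicate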
Autofluor counter: flagged as autofluorescent in microsphere protease counterscreen | fluorescence intensity (no concentration beside the values) | compound autofluorescence counterscreen, microsphere flow cytometry; hits give high values | AID 624483 | 360,000 compounds, 3.1% hits;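 active = at least 3 SD above the mean of all compounds, about 16000 in these data; inconclusive = too few beads counted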;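 also: 100 nL of 1 mM stock went into each well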
Sa RN4220 lethal: S. aureus RN4220 growth inhibition; 330,000 compounds, 0.33% hits; inhibition, % (no concentration beside the values); OD600, 16 h;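 active = z-score of -3 or lower and OD600 up to 0.18 on both plates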;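 also: plate controls were untreated cells for no effect and reference antibiotic for full effect; stock transfer was 100 nL into about 80 µL; one replicate is shown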
PrP UTR inh: suppresses PrP 5' UTR mRNA reporter expression; AID 488862; inhibition, % (no concentration beside the values); cell-based PrP 5' UTR mRNA reporter, plate reader; 340,000 compounds, 0.35% hits;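 active = every replicate at 50% or more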;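 also: 0 = median of the neutral control wells; tested in H4 reporter cells; numbers are from one replicate; inactives centre near -14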
Mtb hypoxia inh: Mtb hypoxia fluorescent reporter inhibition | M. tuberculosis hypoxia-regulated fluorescent reporter, fluorescence | 300,000 compounds, 0.1% hits | fluorescence inhibition, % (no concentration beside the values) | AID 1159583;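 active = 35 to 45% if threefold the growth effect, above 45% if 1.5-fold the growth effect; inactive = the rest, general growth blockers included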;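 also: wells of about 50 µL received 100 nL stock; 0% = vehicle wells and 100% = reference inhibitor wells; whole bacteria with a GFP reporter of the hypoxia response; strong numbers were not always called active; many hits fall short of the cut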
Mtb hypoxia inh growth: second read-out of Mtb hypoxia inh, no call of its own (marks repeat the call); growth inhibition, %; measured here: M. tuberculosis growth (absorbance);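 0% = vehicle and 100% = reference antibiotic; read after six days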
* marks the source's active call; other numbers are inactive results; ? = inconclusive; . = not tested or not shown; & = joins results of further samples.

mol,ugtP null kill,BJeLR viability,Autofluor counter,Sa RN4220 lethal,PrP UTR inh,Mtb hypoxia inh,Mtb hypoxia inh growth
Cc1ccc(CN(CC(=O)NCC2CCCO2)S(=O)(=O)c2ccc(C)cc2)cc1 (stereo not drawn),11,-4,3598,3.1,12,8,4
COc1ccc(S(=O)(=O)NCc2cccnc2)cc1C(=O)N1CCCCC1,8,-1,3428,1.3,-10,-3,2
Cc1cnc(NC(=O)c2cccc(S(=O)(=O)N3CC(C)OC(C)C3)c2)s1 (stereo not drawn),-8,18,4504,-3.1,-23,6,4
Cc1ccccc1S(=O)(=O)N=C(c1ccccc1)N(C)C,3,.,.,1.8,.,6,2
COC(=O)C1=C(C)NC(=O)/C1=C\N(C)C,-4,3,3339,8.9,-24,5,-1
CC(=O)/C(=N\Nc1ccc(C)cc1)Sc1nncn1C,.,-5,2060,.,-17,.,.
Fc1ccc(Nc2nc(N3CCOCC3)nc(N3CCOCC3)n2)cc1,2,-8,4072,4.2,-11,11,7
COc1ccc(C(=O)NC(=S)Nc2cc(C)ccn2)cc1[N+](=O)[O-],-15,-5,2051,1.2,-42,25,15
Cc1ccc2c(c1)cc(CN(C(=O)N1CCOCC1)C1CCCC1)c1nnnn12,3,7,3733,-1.1,-14,3,4
CN(CC(=O)Nc1ccccc1Cl)C(=O)COC(=O)c1cc(S(=O)(=O)N(C)C)ccc1N1CCCC1,-4,4,4768,-4.6,-23,-6,5
Cc1cccc(NC(=O)c2ccc(COc3ccc4ccccc4c3)o2)n1,-6,-7,2089,12,-22,7,6
CC(=O)N1c2ccccc2C(C)CC12CCCCC2 (stereo not drawn),-2,-1,4446,1.5,-15,.,.
O=C(O)COc1ccccc1C=NNC(=O)CSc1nnc(SCc2ccccc2)s1,-7,.,.,5.5,.,9,4
Cc1ccc(C)c(OCC(=O)Nc2ccc(N3CCOCC3)cc2N2CCOCC2)c1,1,.,2947,4.4,-10,-7,0
O=[N+]([O-])c1cc(N=Nc2ccc3ccccc3c2)ccc1O,8,2,3684,2.8,-33,13,11
Cc1cc(=O)c2n(Cc3ccccc3Cl)nc[n+]2[nH]1,-11,5,5515,6.5,-23,0,11
CC12CCC(=O)N1C(C(=O)OCC(=O)Nc1cccc(Br)c1)CS2 (stereo not drawn),5,-10,4111,11,-97,2,-4
COCCN(C(=O)c1cc(Cl)ccn1)c1c(N)n(Cc2ccccc2)c(=O)[nH]c1=O,2,.,4011,3.4,-2,-2,-1
COc1ccc(C=NNc2nc(NCc3ccco3)nc(Nc3ccc(OC)cc3)n2)cc1,-26,.,.,6.0,.,0,4
CC1CCCCN1C(=O)COc1ccc(NC(=O)c2ccco2)cc1 (stereo not drawn),5,.,9595,8.7,-36,4,3
CCCCOc1ccc(-c2nc(=S)[nH][nH]2)cc1,13,9,16673*,6.6,-22,15,-4
O=C(CSCC(=O)Nc1cccc([N+](=O)[O-])c1)Nc1ccccc1,-4,-5,2208,5.4,-21,8,3
COc1ccc(NC(=O)COC(=O)c2ccc3ccccc3n2)cc1OC,-4,.,4214,1.2,-18,12,12
COc1ccc(S(=O)(=O)NCC(=O)NCCc2ccc(OC)c(OC)c2)cc1,-2,7,.,-1.0,.,-5,-3
CCOc1ccccc1NC(=O)CCCc1ccc(OC)c(C)c1,5,0,4082,-0.1,-17,-8,-9
COc1ccc(-c2cc(C(=O)N/N=C/c3cccnc3)c3cc(C)cc(C)c3n2)cc1,.,1,5367,.,-17,.,.
CCOc1cc(S(=O)(=O)N2CCOCC2)ccc1F,8,1,5781,-3.8,-19,.,.
O=C1NCCNC1c1ccccc1 (stereo not drawn),5,.,2965,2.5,-3,6,8
CC(=O)Nc1ccc(C(=O)NCCCSc2ccccc2)cc1,4,-1,5582,0.7,-13,4,8
CN(C)C(=O)NC1c2ccccc2-c2ccccc21,3,4,3655,1.2,-15,4,4
CCN(CC(=O)Nc1cc(Cl)ccc1C)C(=O)CN1C(=O)NC(CC)(c2ccccc2)C1=O (stereo not drawn),6,-6,?,2.0,-12,5,13
O=C(OCC(=O)c1ccc([N+](=O)[O-])cc1)/C(=C\c1ccc(Cl)cc1)NC(=O)c1ccccc1,-7,4,6981,6.9,-25,2,6
CC(C)(C)C1C=C(C(=O)O)OC(OCCCCO)C1 (stereo not drawn),-8&0,.,.,10&5.1,.,8&10,5&11
COc1ccc(NS(=O)(=O)c2cccc(C(=O)NNC(=O)CN3C(=O)NC(C)(C)C3=O)c2)cc1,8,2,5077,1.9,-10,0,-2
Cc1cc(C)n(CCNC(=O)c2cc(COc3ccc(F)cc3Cl)on2)n1,-1,-1,2555,0.9,-13,15,12
Cn1cc(C(=O)NC2C3CC4CC(C3)CC2C4)cn1 (stereo not drawn),4,-2,2137,0.3,-4,-4,7
CC(Oc1ccc(F)cc1)C(=O)Nc1cc(S(=O)(=O)N2CCOCC2)ccc1N1CCN(C)CC1 (stereo not drawn),0,-7,6207,3.6,-21,13,4
COCC=CC1=CC2=CC(=O)C(C)(OC(=O)c3cnc4ccccc4n3)C(=O)C2=CN1Cc1ccco1 (stereo not drawn),-10,.,.,4.3,.,8,3
O=C(Nc1ccccc1N1CCN(C(=O)c2ccccc2)CC1)c1ccccc1Cl,-1,6,4129,4.9,-7,7,8
CC(C)NCC(O)COc1ccc(Br)cc1 (stereo not drawn),7,-13,2466,6.7,-10,15,7

Some of these compounds in order of molecular weight, high to low.
mol,ugtP null kill,BJeLR viability,Autofluor counter,Sa RN4220 lethal,PrP UTR inh,Mtb hypoxia inh,Mtb hypoxia inh growth
CCN(CC(=O)Nc1cc(Cl)ccc1C)C(=O)CN1C(=O)NC(CC)(c2ccccc2)C1=O (stereo not drawn),6,-6,?,2.0,-12,5,13
COc1ccc(-c2cc(C(=O)N/N=C/c3cccnc3)c3cc(C)cc(C)c3n2)cc1,.,1,5367,.,-17,.,.
CN(C)C(=O)NC1c2ccccc2-c2ccccc21,3,4,3655,1.2,-15,4,4

Continuation:
mol,ugtP null kill,BJeLR viability,Autofluor counter,Sa RN4220 lethal,PrP UTR inh,Mtb hypoxia inh,Mtb hypoxia inh growth
COc1ccccc1N1C(=O)c2ccc(C(=O)Nc3nccs3)cc2C1=O,7,2,4860,5.3,-24,14,-3
CCNC(=O)C(=O)Nc1ccc([N+](=O)[O-])cc1,5,15,3607,3.7,-9,14,9
O=C(COC(=O)c1ccncc1)Nc1ccccc1,2,-7,4736,5.7,-39,-14,3
O=C(CSC(=S)N1CCCCC1)c1ccccc1,-4,2,3396,6.0,7,.,.
CCn1c(SCC(=O)N2c3ccccc3CCc3ccccc32)nc2c1c(=O)n(C)c(=O)n2C,8,2,9689,5.2,.,6,3
CCOC(=O)C1CCN(C/C=C/c2ccccc2)CC1,14,-2,3760,3.0,-22,2,0
CCN(CC)CCCNC(=O)/C(=C\c1cccn1C)NC(=O)c1cccs1,-2,8,2501,-4.2,-28,-12,2
CCC(C)Oc1ccc(/C=C/c2[nH]c(=O)[nH]c(=O)c2[N+](=O)[O-])cc1OC (stereo not drawn),.,5,4478,.,-5,.,.
O=c1[nH]c(=S)c2c(n1-c1ccccc1)CCC2,4,-5,12886,1.8,-20,14,6
O=c1c2ccccc2nnn1CSc1nnc(-c2ccc3c(c2)OCO3)o1,1,-6,2063,7.2,-17,.,.
O=C(NCCCn1ccnc1)c1ccc(NS(=O)(=O)c2ccc(Cl)c(Cl)c2)cc1,6,-2,6264,2.7,0,8,9
Cc1cc(C)n2nc(-c3ccccc3)cc2n1,10,-2,3700,8.7,-43,14,5
Cc1cc(=O)[nH]c2ccc(Cc3ccccc3)cc12,5,.,3378,6.1,-16,2,3
CCn1cc(C(=O)NCCc2ccccc2C)c(=O)c2ccc(C)nc21,9,-3,3149,4.0,-14,3,-2
O=C1CC(N(CCc2ccccc2)C(=S)Nc2cc(Cl)ccc2Cl)C(=O)N1c1c(Cl)cccc1Cl (stereo not drawn),-15,-1,3175,14,4,4,6
O=C(Nc1ccc(CN2CCCCC2)cc1)c1sc2ccccc2c1Cl,-5,10,4336,-8.1,-13,10,3
COc1ccc(OCC(=O)N2CCN(C(=O)c3cccc4ccccc34)CC2)cc1,7,2,21547*,-1.1,-6,-1,0
COc1ccc(/C=C/C(=O)OCC(=O)c2ccccc2F)cc1,8,.,3418,19,-51,8,6
COc1ccc(C(=O)NCc2ccccn2)cc1[N+](=O)[O-],15,-5,4274,2.2,-39,5,-2
Cc1ccc(NC2CCCN(C(=O)c3snnc3C)C2)cc1C (stereo not drawn),4,10,5155,2.3,-1,1,2
CCCn1c(SCC(=O)c2cc(C)n(-c3cc(C)on3)c2C)n[nH]c1=O,2,.,7301,3.5,-19,-1,-2
Cc1onc(-c2c(F)cccc2Cl)c1C(=O)NCCN1CCNC1=O,11,5,3778,3.8,-7,9,6
COc1ccc(C(=O)N2CCN(C(=O)c3ccco3)CC2)cc1OC,0,-3,10094,3.5,-12,14,9
CCCOCCc1nnc(N)s1,3,-7,2899,-2.0,-16,3,-3
O=C1OCCN1/N=C/c1ccc([N+](=O)[O-])o1,.,-18,5988,.,-8,.,.
COC(=O)[C@H](C)NC(=O)/C=C/c1ccc(OC)cc1,.,2,2449,.,-21,.,.
CCCN1CCN(S(=O)(=O)c2ccc3c(c2)CC(C)N3C(=O)C2CC2)CC1 (stereo not drawn),-5,7,5363,0.5,-2,10,13
Nc1cc2cccnc2cc1Cl,-7,.,3740,-0.1,-20,14,7
O=C(O)CCC(=NNC(=O)CNC(=O)/C=C/c1ccccc1)c1ccccc1,3,.,.,20,.,3,2
O=C(c1cc([N+](=O)[O-])ccc1N1CCCC1)N1CCCCC1,8,-17,4482,0.4,-1,8,11
O=C(CSc1nnc(-c2cccnc2)n1-c1ccccc1)Nc1ccccn1,12,0,?,3.0,-19,16,12
COCCn1c(SCC#N)nnc1-c1ccc2c(c1)OCO2,0,8,11312,3.1,-16,-1,15
CCC(C)c1ccc(O)c(NC(=O)c2ncn[nH]2)c1 (stereo not drawn),2,-4,9779,5.2,-18,-6,0
COc1cccc(CNc2ccc3[nH]c(=O)[nH]c3c2)c1OCc1ccccc1,7,-1,4277,1.0,-4,-3,-11
O=C(NCc1ccccc1)N1CCN(c2ccccc2)CC1,9,-1,3211,0.0,-20,9,3
Cc1cc([N+](=O)[O-])nn1Cc1ccc(C(=O)N/N=C/c2ccc(O)cc2O)cc1,.,-1,10448,.,-17,.,.
O=C(O)CCNc1nc(C(F)(F)F)nc2ccccc12,6,-7,4827,5.6,-23,-9,3
O=C(NCc1ccco1)C1CC(=O)N(c2ccc(O)cc2)C1 (stereo not drawn),5,1,4178,-9.3,-18,.,.
